Bioassay records (PubChem)
GIRK2 act: activators of human GIRK2 potassium channels; G protein-activated inward rectifier potassium channel 2 (Homo sapiens), P48051; HEK293-GIRK2 thallium flux, Thallos fluorescence; calls only for hits at 25 µM; 0.05% of 63,000 active; AID 1259325, 2017;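 active means among the strongest 0.2% of first-round signals and kept after retests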;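 further: first round at about 10 µM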
Target sequence (P48051 whole entry, looked up): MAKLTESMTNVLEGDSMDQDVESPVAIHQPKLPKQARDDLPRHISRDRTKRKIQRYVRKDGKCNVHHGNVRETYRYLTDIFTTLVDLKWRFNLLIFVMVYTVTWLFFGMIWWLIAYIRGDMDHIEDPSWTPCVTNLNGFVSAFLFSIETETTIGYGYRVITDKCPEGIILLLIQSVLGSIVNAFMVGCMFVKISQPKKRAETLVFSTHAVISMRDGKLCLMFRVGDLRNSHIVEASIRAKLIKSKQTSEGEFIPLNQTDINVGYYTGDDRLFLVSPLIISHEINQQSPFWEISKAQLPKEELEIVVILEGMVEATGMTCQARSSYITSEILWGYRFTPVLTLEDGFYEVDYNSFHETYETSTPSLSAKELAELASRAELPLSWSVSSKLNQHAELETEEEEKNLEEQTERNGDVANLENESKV
Calls only; i = inactive.

SMILES	GIRK2 act
Cc1cc(OCC(=O)Nc2ccc(Br)cc2)nc(N2CCCCC2)n1	i
CCCCCC(O)/C=C/[C@H]1CCC(O)C1CCCCCCC(=O)O (some centres undefined)	i
COc1ccccc1-c1nc(Cn2nnc(C(=O)Nc3cc(C)ccc3C)c2C)c(C)o1	i
Cc1nc(-c2cccs2)sc1C(=O)NCCn1cnc(-c2ccc(F)cc2)cc1=O	i
Cc1ccc(C)c(CN2CC(c3nc(-c4cccs4)no3)C2)c1	i
COc1ccc(OC)c(S(=O)(=O)N2CCCC(c3nnc(-c4cccs4)o3)C2)c1 (centres undefined)	i
CC(=O)C(C)Sc1cc(C)nc2c(-c3ccccc3)cnn12 (centres undefined)	i
COc1ccc(NC(=O)CSc2ncc(-c3ccc(C)c(C)c3)o2)c(OC)c1	i
COc1ccc(-c2csc3c(=O)n(CC#N)cnc23)cc1OC	i
COC(=O)c1cc(Cl)c(NC(=O)C(C)C)cc1OC	i
Cc1ccc(NC(=O)Cn2nc(C3CCCN(S(C)(=O)=O)C3)n(C)c2=O)cc1Cl (centres undefined)	i
COc1cc(C(=O)N2CCN(c3c(C)cccc3C)CC2)cc(OC)c1OC	i
Cc1csc(SCC2CCN(C(=O)NCCCc3ccccc3)CC2)n1	i
CC(C)OCC(O)Cn1c(N/N=C\c2cccnc2)nc2c1c(=O)n(C)c(=O)n2C (centres undefined)	i
O=c1[nH]c2cc(S(=O)(=O)N3CCC4(CC3)OCCS4)ccc2o1	i
COc1ccc(NC(=O)c2cn(-c3cc(N4CCCCC4)ncn3)cn2)cc1	i
O=S(=O)(Cc1ccc(F)cc1)N1CC(c2nc(-c3ncccn3)no2)C1	i
COC1CCN(C(=O)Cc2ccc(-c3ccccc3)cc2)CC1	i
O=C(/C=C/c1ccc2c(c1)OCO2)NCc1ccc(C(O)c2cccs2)s1 (centres undefined)	i
CCOc1nn(CC)cc1C(=O)Nc1nnc(SCc2cccnc2)s1	i
COc1ccc(S(=O)(=O)c2cnc(SCC(=O)Nc3cc(F)ccc3C)[nH]c2=O)cc1Cl	i
C=CCOC(=O)COc1ccc2c(c1)O/C(=C\c1cc(OC)c(OC)c(OC)c1)C2=O	i
O=C(c1ccc2c(c1)OCO2)N1CCC(Oc2ncccc2Cl)CC1	i
O=C(CN1CCN(Cc2nc3ccccc3[nH]2)CC1)Nc1nc2ccccc2s1	i
COCCOCC1CCN(S(C)(=O)=O)CC1	i
COc1ccc(NC(=O)NCCOc2cc(N3CCCC3)ncn2)c(OC)c1	i
CSc1nc2ccc(NC(=O)CCCS(=O)(=O)Cc3ccccc3)cc2s1	i
CCOc1ccccc1-c1nc(CN(c2ccccc2)S(=O)(=O)c2ccccc2)c(C)o1	i
O=c1c(-c2ccccc2)coc2c3c(ccc12)OCN(Cc1ccccc1)C3	i
Cc1oncc1C(=O)NCc1cc(C2CC2)n(C)n1	i
Cc1cc(C)cc(-n2cc(C(=O)N3CCC(NC(=O)c4ccccc4F)CC3)nn2)c1	i
Cn1c(=O)c2c(ncn2CC(=O)Nc2nccs2)n(C)c1=O	i
O=C(Nc1ccc2c(c1)N(S(=O)(=O)c1ccc(F)cc1)CCC2)c1cc(=O)c2ccccc2o1	i
CCOc1ccc(C(=O)Cn2cc(-c3nc(-c4ccccc4Cl)no3)ccc2=O)cc1	i
COc1cccc(-n2c(C)cn3c4c(=O)n(CC(N)=O)c(=O)n(C)c4nc23)c1	i
O=c1ccc(S(=O)(=O)N2CCCC2)cn1Cc1ccccc1Cl	i
Cc1ccc2nc(C)cc(=S)n2c1	i
O=C(NCC1(c2ccccc2)CCOCC1)Nc1ccc2c(c1)OCO2	i
COC(=O)c1ccc(NC(=O)Cn2nc3nc(N4CCCCCC4)ccn3c2=O)cc1	i
CC(C)NC(=O)Cn1nc(-c2ccc(F)cc2)c2sc(N3CCOCC3)nc2c1=O	i
O=C(CC1(O)C(=O)Nc2ccc(Br)cc21)c1ccsc1 (centres undefined)	i
CCOC(=O)c1ccc(-n2c(C)c(C)n3c4c(=O)n(CCN5CCOCC5)c(=O)n(C)c4nc23)cc1	i
Cc1ncc2c(SCC(=O)Nc3ccc(C(F)(F)F)cc3)ncnc2n1	i
CCCC(NC(=O)c1cc(OC)cc(OC)c1)C(=O)Nc1nc2ccccc2[nH]1 (centres undefined)	i
COC(=O)c1ccc2c(=O)n(CCC(=O)NCCc3ccccc3)c(=S)[nH]c2c1	i
Cc1ccc(NC(=O)NCC#CCN(C(C)C)C(C)C)cc1	i
O=C(CSCc1ccccc1)Nc1ccc(-n2nnc(C(=O)NC3CCCC3)n2)cc1	i
COc1ccc(CC(=O)Nc2cccc3ccc(-n4ccnc4)nc23)cc1OC	i
CN(C)CC1CSCCCN1C(=O)Nc1ccc(C(C)(C)C)cc1 (centres undefined)	i
COCCN1CCC(NC(=O)c2cc(C)on2)CC1	i
CC(C)=CC(O)C12OC1C(=O)C1=C(C2=O)C2OC(C)C1C1C(C)OC=C3C(=O)C4(C(O)C=C(C)C)OC4C(=O)C321 (centres undefined)	i
O=C(Nc1ccccc1F)N1CCC(CSCc2ccco2)CC1	i
COc1ccc(OCCn2c(CCO)nc3ccccc32)cc1	i
COc1ccc(-c2nc(Cn3nnc(C(=O)Nc4ccc(OC)cc4OC)c3N)c(C)o2)cc1	i
O=C(Nc1ccc(-c2ccn[nH]2)cc1)C1CC1	i
CCN1CCN(c2c([N+](=O)[O-])c(=O)n(C)c3ccccc23)CC1	i
COCCN(Cc1ccoc1)S(=O)(=O)c1ccc(NC(=O)C(C)C)cc1	i
O=C(NCC1COC2(CCCCC2)O1)c1cc(-c2ccco2)on1 (centres undefined)	i
O=C(Nc1ccncc1)c1ccc(CNS(=O)(=O)c2cccc(C(F)(F)F)c2)cc1	i
CN(C)C(CNS(=O)(=O)c1ccc(Cl)s1)c1cn(C)c2ccccc12 (centres undefined)	i
Further entries follow.
SMILES	GIRK2 act
CCOc1c(C)cc(S(=O)(=O)Nc2ccc3c(c2)CCC(=O)N3)cc1C	i
COC(=O)c1ccc(CSc2nc(C)cc(C(F)(F)F)n2)cc1	i
COc1cc(-c2noc(Cn3ncn4nc(-c5ccc(C)cc5C)cc4c3=O)n2)cc(OC)c1OC	i
COc1ccc(-c2nc(CSc3nc4ccccc4c(=O)n3Cc3ccco3)c(C)o2)cc1	i
COc1ccc(NC(=O)c2cc3ccccc3c(=O)o2)c([N+](=O)[O-])c1	i
CC(C)CCN1C(=O)CCc2cc(NC(=O)Nc3ccc4c(c3)OCO4)ccc21	i
COCCN(CCOC)C(=O)CCN1C(=O)c2ccccc2S1(=O)=O	i
CC(C)C(=O)Nc1sc2c(c1-c1nc3ccccc3s1)CCN(C)C2	i
Cc1cc2oc(=O)cc(Cn3ccnc3)c2cc1Cl	i
Cn1c(=O)c2c(nc(N3CCCCCC3)n2CC(O)COc2ccc(Cl)cc2Cl)n(C)c1=O (centres undefined)	i
Cn1c(-c2ccccn2)nn(CCNC(=O)c2cncc(Br)c2)c1=O	i
Cc1nn(C(C)(C)C)c(OC(=O)c2c(F)cccc2Cl)c1S(=O)(=O)c1ccccc1	i
Cc1ccccc1N1C(=O)N(CC(=O)N2CCC(C)CC2)c2ccccc2S1(=O)=O	i
COC(=O)c1ccccc1NC(=O)Cn1cc(-c2nc(-c3ccc(OC)cc3)no2)ccc1=O	i
Fc1ccccc1Cn1cccc1-c1nc(-c2ccc3c(c2)OCO3)no1	i
Cc1cc(-c2nnc(NC(=O)Nc3ccc4c(c3)OCO4)o2)nn1C	i
O=C(Nc1cccc(-c2nc3ccccc3o2)c1)c1ccc2nsnc2c1	i
COCC(=O)NCC#CCOc1ccccc1C(N)=O	i
COCCn1c(=O)c2c(nc3n(CCc4ccccc4)c(C)c(C)n23)n(C)c1=O	i
COc1ncccc1C(=O)N1CCN(C2CCCCC2)CC1	i
O=C(CCCCCn1cnc2ccccc2c1=O)Nc1cccnc1	i
CC1CC(C)CN(C(=O)c2ccc(-n3cccn3)nn2)C1 (centres undefined)	i
O=C(Nc1nnc(C2CC(=O)N(c3ccccc3)C2)o1)c1ccccc1Br (centres undefined)	i
CCOc1ccc(-n2nnnc2CN2CCN(C(=O)NCc3ccc(F)cc3)CC2)cc1	i

Two of the compounds above, field by field.
> CN(C)C(CNS(=O)(=O)c1ccc(Cl)s1)c1cn(C)c2ccccc12 (centres undefined)
  GIRK2 act: i

> COC1CCN(C(=O)Cc2ccc(-c3ccccc3)cc2)CC1
  GIRK2 act: i

More results follow:
SMILES	GIRK2 act
COC(=O)c1cn(Cc2cccc(C#N)c2)nc1S(=O)(=O)N1CCSCC1	i
O=C(NCCN1CCN(c2ccc(F)cc2)CC1)Nc1ccc2c(c1)OCO2	i
O=C(CSc1ncn[nH]1)N1CCOCC1	i
CSCCC(C)(O)CNC(=O)Nc1ccc(C(F)(F)F)cc1 (centres undefined)	i
CN(C)c1cc(-n2cnc(C(=O)Nc3ccc4c(c3)OCCO4)c2)ncn1	i
O=C(CSc1nc2ncccc2c(=O)n1CC1CCCO1)Nc1ccc(Br)cc1 (centres undefined)	i
CCOc1ccc(/C=C/c2nc(C#N)c(N3CCN(C(=O)c4ccco4)CC3)o2)cc1	i
COc1ccccc1N1CCN(CCNC(=O)Cc2ccc(Cl)cc2)CC1	i
COC(=O)c1ccc(C(=O)Nc2sc3c(c2-c2nc4ccccc4s2)CCN(C(C)=O)C3)cc1	i
CCOC(=O)N1CCN(C2CC(=O)N(c3ccc(SC(F)F)cc3)C2=O)CC1 (centres undefined)	i
CC(CCc1ccccc1)NC(=O)C1CCN(c2nc3ccccc3[nH]c2=O)CC1 (centres undefined)	i
Cc1noc(-c2ccc(NC(=O)C3c4ccccc4Oc4ccccc43)cc2)n1	i
COCCN1CCC(NC(=O)c2cnccn2)CC1	i
CCOc1ccc(S(=O)(=O)NCc2ccc(C(=O)c3cccs3)s2)cc1C	i
COC(=O)c1c(NCc2ccc3c(c2)OCO3)c2ccccc2[nH]c1=O	i
COc1ccc(-c2nc(CN(c3ccccc3OC)S(=O)(=O)c3ccccc3)c(C)o2)cc1OC	i
COc1ccc(NC(=O)COc2ccc(C)cc2)cc1N1CCCC1=O	i
COc1ccc(N2CC(C)Cn3c2nc2c3c(=O)n(Cc3ccc(C)cc3)c(=O)n2C)cc1 (centres undefined)	i
Cc1nc(SCc2cccc(Cl)c2)[nH]c(=O)c1CC(=O)NCc1ccccn1	i
Cc1cc2oc3c(c(=O)c2cc1Cl)C(c1cccnc1)N(CCN(C)C)C3=O (centres undefined)	i
CC(=O)Nc1ccc(S(=O)(=O)N2CCN(S(=O)(=O)C3CC3)CC2)cc1	i
Cc1cccc(CN2N=C(C(=O)N3CCOCC3)S(=O)(=O)c3ccc(C)cc32)c1	i
COCCCn1c(C(=O)NCc2ccco2)cc2c(=O)n(C)c(=O)n(C)c21	i
O=C(NCc1ccc(F)cc1)N1CCCC(c2nnc(C(F)(F)F)o2)C1 (centres undefined)	i
O=C(CN1C(=O)C2(SCC(=O)N2c2ccc(F)c(F)c2)c2ccccc21)NCCc1ccccc1 (centres undefined)	i
CCOc1cc(C2C(=C(O)c3ccc(Cl)cc3)C(=O)C(=O)N2c2ccccn2)ccc1O (centres undefined)	i
O=C(Nc1ccc(S(=O)(=O)N2CCOCC2)cc1)c1ccsc1	i
Cc1cc(C)nc(Nc2nc(C(=O)Nc3cc(C)on3)cs2)n1	i
O=C(NCC(O)c1ccc2c(c1)CCO2)c1cccs1 (centres undefined)	i
COCCOC(=O)C1=C(C)NC(SCC(N)=O)=C(C#N)C1c1ccccc1Cl (centres undefined)	i
CCOc1ccc(NC(=O)Cn2c(=O)c(CNc3ccccc3)cc3ccc(C)cc32)cc1	i
COc1cccc(-c2noc(-c3sccc3S(=O)(=O)N(C)c3cccc(C)c3)n2)c1OC	i
O=C(CCn1c(=O)oc2ccc(Cl)cc21)Nc1ccc(OC(F)(F)F)cc1	i
O=C(NCCC(O)C1CC1)c1ccc(Cl)cc1Cl (centres undefined)	i
CCNC(=O)CCC/C=C\C[C@@H]1[C@@H](CC[C@@H](O)CCc2ccccc2)[C@H](O)C[C@@H]1O	i
Nc1ncc(-c2ccccc2)c(-c2ccc(O)cc2O)n1	i
CS(=O)(=O)c1ccc(NC(=O)C2COCC(=O)N2Cc2ccccc2)cc1 (centres undefined)	i
CCOc1ccccc1-c1noc(CSc2nc3cc4c(cc3c(=O)n2CCCOC)OCO4)n1	i
COc1cccc2sc(OC3CN(C(=O)c4ccc5c(c4)OCO5)C3)nc12	i
CCC(=O)Nc1ccc(C(=O)NCCNS(=O)(=O)c2ccccc2C(F)(F)F)cc1	i

Among those listed so far, 14 have an aryl thioether with sulfur outside any ring.
SMILES	GIRK2 act
CC(=O)C(C)Sc1cc(C)nc2c(-c3ccccc3)cnn12 (centres undefined)	i
COc1ccc(NC(=O)CSc2ncc(-c3ccc(C)c(C)c3)o2)c(OC)c1	i
Cc1csc(SCC2CCN(C(=O)NCCCc3ccccc3)CC2)n1	i
CCOc1nn(CC)cc1C(=O)Nc1nnc(SCc2cccnc2)s1	i
COc1ccc(S(=O)(=O)c2cnc(SCC(=O)Nc3cc(F)ccc3C)[nH]c2=O)cc1Cl	i
CSc1nc2ccc(NC(=O)CCCS(=O)(=O)Cc3ccccc3)cc2s1	i
Cc1ncc2c(SCC(=O)Nc3ccc(C(F)(F)F)cc3)ncnc2n1	i
COC(=O)c1ccc(CSc2nc(C)cc(C(F)(F)F)n2)cc1	i
COc1ccc(-c2nc(CSc3nc4ccccc4c(=O)n3Cc3ccco3)c(C)o2)cc1	i
O=C(CSc1ncn[nH]1)N1CCOCC1	i
O=C(CSc1nc2ncccc2c(=O)n1CC1CCCO1)Nc1ccc(Br)cc1 (centres undefined)	i
CCOC(=O)N1CCN(C2CC(=O)N(c3ccc(SC(F)F)cc3)C2=O)CC1 (centres undefined)	i
Cc1nc(SCc2cccc(Cl)c2)[nH]c(=O)c1CC(=O)NCc1ccccn1	i
CCOc1ccccc1-c1noc(CSc2nc3cc4c(cc3c(=O)n2CCCOC)OCO4)n1	i

This is a subset (hit frequency here may not be typical).
